MT1-MMP act inh – blockers of MT1-MMP proenzyme processing, primary screen, HT1080 RFP-PRO-GFP cells, GFP/RFP fluorescence. Matrix metalloproteinase-14 (Homo sapiens), P50281. GFP/RFP ratio change, % at 20 µM. GFP/RFP ratio fluorescence, overnight; percent of plate control window, DMSO zero. actives 0.061% (n = 360,000). AID 651647, 2012;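 active = GFP/RFP ratio change of at least 30% with cell ATP level not reduced by more than half and red fluorescence within 50% of control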; also: strong numbers were not always called active
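system = RFP-PRO-GFP reporter HT1080 cells | dosing = 20 µM single dose, 1% DMSO | timing = overnight cell settling, then overnight compound exposure, 37 °C, 5% CO2 | read-out basis = GFP/RFP fluorescence ratio | controls = DMSO and RFP-L50D-GFP cell wells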
Env fusion inh – inhibitors of HIV-1 Env-driven cell-cell fusion, primary screen, HeLa-JRFL effector, CEM21 target cells, luciferase | inhibition, % at 12.3 µM | actives 1.1% (n = 360,000) | AID 651610, 2012;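 active = mean replicate inhibition score of at least 50 and every replicate individually at or above 50; inconclusive = only one of the two criteria met; inactive = mean below 50 and not all replicates reaching 50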;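 also: 0% = plate neutral controls and 100% = maraviroc near 300 nM; one replicate is shown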
UUG fidelity – modulators of yeast start codon fidelity, primary screen, whole organism, S. cerevisiae, single point, plate reader; S. cerevisiae UUG-firefly luciferase reporter, luminescence/redox ratio; activity score, % at 18.7 µM; actives 0.13% (n = 350,000);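 active = replicate mean at a twofold rise or more, about +100% in these data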;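 also: firefly luciferase made from a UUG start codon reports start codon fidelity; reporter light over untreated wells divided by growth signal over untreated wells; some hits fall short of that in this replicate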
PABP polyA inh – PABP poly(A) RNA binding inhibitors, primary screen, biochemical, fluorescence polarization, uHTS. Polyadenylate-binding protein 1 (Homo sapiens), P11940. actives 1% (n = 290,000). inhibition, % at 35 µM;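 active = 50% or more with normal probe brightness, or confirmed in later tests; inconclusive = above 50% with abnormal brightness, or retests that disagree; inactive = below 50% or failed in later tests; about a fifth of its hits are not listed in these tables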;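 also: calls also rest on retests at 20 µM and on dose response follow-up; controls were probe without protein and protein plus probe with vehicle; some compounds called inactive have numbers as strong as hits; many hits fall short of the cut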
Target sequence (P11940 whole entry, looked up): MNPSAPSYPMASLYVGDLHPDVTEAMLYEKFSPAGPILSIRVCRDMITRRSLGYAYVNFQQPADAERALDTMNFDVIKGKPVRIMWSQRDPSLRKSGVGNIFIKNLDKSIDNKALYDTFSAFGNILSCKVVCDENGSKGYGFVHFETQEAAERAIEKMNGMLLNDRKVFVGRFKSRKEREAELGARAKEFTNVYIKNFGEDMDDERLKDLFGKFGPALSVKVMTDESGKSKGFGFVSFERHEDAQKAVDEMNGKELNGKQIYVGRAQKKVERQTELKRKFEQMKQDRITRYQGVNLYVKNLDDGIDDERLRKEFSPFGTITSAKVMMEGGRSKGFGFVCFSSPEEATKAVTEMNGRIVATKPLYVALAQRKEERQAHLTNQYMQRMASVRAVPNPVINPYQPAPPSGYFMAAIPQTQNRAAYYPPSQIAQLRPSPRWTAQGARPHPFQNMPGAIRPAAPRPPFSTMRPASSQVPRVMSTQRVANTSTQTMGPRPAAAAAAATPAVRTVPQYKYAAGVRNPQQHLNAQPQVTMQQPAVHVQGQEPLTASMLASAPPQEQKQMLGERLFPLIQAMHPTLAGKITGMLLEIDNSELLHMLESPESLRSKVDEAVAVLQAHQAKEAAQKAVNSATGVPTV
eIF4H inh – human eIF4H binding inhibitors, primary screen, translation initiation inhibitor project, biochemical, uHTS, fluorescence polarization; Eukaryotic translation initiation factor 4H (Homo sapiens), Q15056; eIF4H fluorescence polarization binding assay; inhibition, % at 35 µM; actives 0.94% (n = 290,000);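 active = 50% or more with normal probe brightness, or confirmed in later tests; inconclusive = above 50% with abnormal brightness, or retests that disagree; inactive = below 50% or failed in later tests; about a fifth of its hits are not listed in these tables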;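 also: calls also rest on retests at 20 µM and on dose response follow-up; 0% = protein and probe with vehicle and 100% = probe without protein; strong numbers were not always called active; many hits fall short of the cut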
CSC inhib – cancer stem cell viability inhibitors, primary screen, luminescence; cancer stem cell-like cells viability; inhibition, % at 7.5 µM; actives 1.1% (n = 300,000); AID 2717, 2010;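 active = mean at 75% or more and at least half the replicates too; inconclusive = mean and replicates disagree; tested in HMLE shEcad cells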;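 also: 0% = median of negative and 100% = median of positive control wells; the first replicate is given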
Rce1 inh – yeast Rce1p protease inhibitors, primary screen, biochemical, fluorescence, cell-free homogeneous | actives 0.27% (n = 290,000) | calls only | CAAX prenyl protease 2 (Saccharomyces cerevisiae (strain ATCC 204508 / S288c)), Q03530 | yeast membranes, quenched prenylated peptide cleavage fluorescence;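 active = fall in fluorescence gain of 50% or more versus controls, with final raw signal at or below 3038400; inconclusive = same 50% fall but final raw signal above 3038400; inactive = fall in fluorescence gain under 50%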;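 also: plate controls were neutral control wells for no effect and wells lacking membranes for full effect; tested at 10 µM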
MT1-MMP act inh RFP – second read-out of MT1-MMP act inh, no call of its own (marks repeat the call); RFP signal change, %; measured here: RFP expression control read;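 0 = vehicle wells; hits needed this value within 50% of zero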
* = called active by the depositor; i = inactive; ? = inconclusive; . = not tested or not shown; & = joins results of further samples.

The line under a structure holds: MT1-MMP act inh, MT1-MMP act inh RFP, Env fusion inh, UUG fidelity, PABP polyA inh, eIF4H inh, CSC inhib, Rce1 inh
> CCCCCOC(=O)CC(C(=O)OCCCCC)N1CCCCC1 (stereo unspecified)
    -0.3, 0.5, ., -7.6, 3.9, -2.1, 3.1, i
> C[C@H](CO)N1C[C@H](C)[C@@H](CN(C)S(=O)(=O)c2cn(C)cn2)Oc2c(NC(=O)Nc3ccc4c(c3)OCO4)cccc2C1=O
    4.1, 9.3, 4.9, -0.5&-9.4, ., ., -18.2, .
> COc1ccc(C)cc1N(CC(=O)Nc1ccc2c(c1)OCCO2)S(C)(=O)=O
    -2.3, -2.9, 14.8, ., -7.8, -2.9, 2.2, i
> O=c1oc(-c2cccs2)nc2c1cnn2-c1ccccc1
    0.8, 2.6, 6.1, ., 4.1, -3.0, 4.7, i
> O=C(CCNC(=O)c1ccc(Br)cc1)Nc1ccc(S(=O)(=O)N2CCCCC2)cc1
    2.9, 0.1, -8.5, -18.6, ., ., ., .
> Cc1cccc(NC(=O)CSc2n[nH]c(-c3cccnc3)n2)c1
    3.6, 1.0, 9.8, -11.6, -5.1, -1.3, ., i
> COc1cc(/C=N/Nc2nc(C)cc(=O)[nH]2)ccc1O
    1.9, 1.4, -3.6, -34.5, 1.7, -9.8, -8.5, i
> CC(C(=O)N1CCc2ccccc21)N(C)CC(=O)Nc1ccccc1Cl (stereo unspecified)
    0.9, -2.7, 4.4, 6.6, ., ., -9.5, .
> Cc1cc(C(=O)COC(=O)c2ccc(O)cc2)c(C)n1CC1COc2ccccc2O1 (stereo unspecified)
    -3.6, -5.2, -16.7, -11.7, -11.7, 0.3, 10.4, i
> O=C(CN1C(=O)c2cccc3cccc1c23)NC1CCCCC1
    1.5, 1.9, -5.7, -5.7, 9.2, -0.8, ., i
> CC1(C(=O)Nc2cccnc2)Cc2c(-c3ccccc3)ccnc2O1 (stereo unspecified)
    1.1, -3.3, 3.0, -20.6, ., ., ., .
> C=CCNC(=O)CSCc1ccc(Br)cc1
    -1.5, 0.4, -1.4, ., -2.3, 3.4, -5.0, i
> COc1ccc(NC(=O)CSc2nnc(-c3cccnc3)s2)cc1
    1.5, 0.3, -6.3, -15.7, -0.4, -20.9, 2.0, .
> CCC1CCCCN1S(=O)(=O)c1ccc(NC(=O)c2ccncc2)cc1 (stereo unspecified)
    4.7, -29.0, 62.6*, -14.5, -3.1, 1.0, 0.3, i
> CC(C)NC(=O)CN(Cc1ccc2c(c1)OCO2)C(=O)CCC(=O)Nc1ccccn1
    0.8, 2.5, -9.2, 10.8, 10.1, -0.8, ., i
> COc1cccc(C(=O)NCC(=O)n2nc(C)cc2C)c1
    -1.0, 1.7, ., 5.1, -3.0, -8.9, -14.2, i
> Cn1c(=S)n(/N=C/c2cccs2)c2ccccc21
    -0.4, 2.6, -9.4, -12.9, -9.5, -2.8, -19.5, i
> Cc1ccc(C)c(OCc2cc(C(=O)N3CCN(c4cnccn4)CC3)no2)c1
    2.3, 1.6, -8.1, -16.9, 2.8, 1.9, 2.9, i
> CCOC(=O)C1=C(COC(=O)C2CC(=O)N(c3ccccc3F)C2)NC(=O)NC1C (stereo unspecified)
    -1.7, 4.3, -0.6, 5.6, ., ., -10.3, .
> CC(OC(=O)c1ccncc1)C(=O)Nc1cc(S(=O)(=O)N2CCCCC2)ccc1Cl (stereo unspecified)
    -1.3, 5.3, 6.5, ., -0.3, -4.5, -18.3, i

Continued; it opens with the 2 that closed the last part.
The line under a structure holds: MT1-MMP act inh, MT1-MMP act inh RFP, Env fusion inh, UUG fidelity, PABP polyA inh, eIF4H inh, CSC inhib, Rce1 inh
> CCOC(=O)C1=C(COC(=O)C2CC(=O)N(c3ccccc3F)C2)NC(=O)NC1C (stereo unspecified)
    -1.7, 4.3, -0.6, 5.6, ., ., -10.3, .
> CC(OC(=O)c1ccncc1)C(=O)Nc1cc(S(=O)(=O)N2CCCCC2)ccc1Cl (stereo unspecified)
    -1.3, 5.3, 6.5, ., -0.3, -4.5, -18.3, i
> COc1cc(C=NNC(=O)C(=O)Nc2cccc(Cl)c2)cc(OC)c1O
    4.3, -2.9, -22.8, -18.2, ., ., ., .
> COCCn1ccc2c(OCC(=O)Nc3ccccc3OC)cccc2c1=O
    8.5, -0.2, ., -12.3, ., ., 10.6, i
> Cc1ccccc1C(=O)NCC(=O)N1CCN(C/C=C/c2ccccc2)CC1
    -2.3, -2.5, 17.8, -7.6, ., ., -5.3, .
> CN1c2ccccc2C(=O)/C(=C\Nc2ncccn2)S1(=O)=O
    1.4, 2.8, 16.3, -9.6, -5.6, -6.0, -7.4, i
> COc1ccc(C(=O)NNC(=O)CCn2nnc(-c3ccc(C)cc3)n2)cc1OC
    -0.3, -1.4, 4.8, ., 9.6, 10.6, -2.9, i
> CC1=CC(C)(C)N(S(=O)(=O)c2ccc(F)cc2)c2ccc(C)cc21
    7.9, -10.3, 44.9, -6.7, -5.8, -4.9, 87.2*, i
> Cc1ccc(CNC(=O)CCCn2nc(C)c3c(C)n(-c4ccccc4)nc3c2=O)cc1
    1.6, -5.4, -3.6, 3.0, 4.3, 1.1, -10.7, i
> Cc1ccc(Cn2c(C)cc3c(c2=O)C(c2cccs2)C(C#N)=C(N)O3)cc1 (stereo unspecified)
    8.8, -3.7, ., 0.9, -8.8, -5.6, 9.6, i
> N#C/C(=N\Nc1ccc(F)cc1)C(=O)C1CC1
    -0.1, -3.2, 4.0, -27.0, 11.2, -11.6, 39.0, i
> Cc1cccc(CSc2nnc(NC(=O)CSc3nnc(C)s3)s2)c1
    -1.7, -2.2, ., -11.4, 1.4, -0.2, -11.4, i
> CCN(CC(=O)Nc1c(F)cccc1F)C(=O)Cn1[nH]c(=O)c2ccccc2c1=O
    -0.1, 5.4, -11.6, -7.1, ., ., ., .
> CCOc1ccc(-c2noc(CCC(=O)O)n2)cc1
    -1.8, 3.4, 53.3, -28.7, 4.6, -2.6, -6.7, i
> COc1ccccc1S(=O)Cc1ccc(C(=O)O)o1 (stereo unspecified)
    1.0, 1.0, -12.3, -6.3, -8.0, -7.9, ., i
> COc1cc(NC(=O)C/C(C)=N/NC(=O)Cc2ccc(Cl)cc2)c(OC)cc1Cl
    4.2, 8.2, ., -18.8, -2.5, 10.7, -12.4, i
> CCn1cc([N+](=O)[O-])c(=O)c2cc(F)c(N3CCOCC3)cc21
    -2.1, -3.6, 2.8, -0.2, 9.6, -4.8, -1.5, i
> CC1(C)Cc2ccccc2-c2nnc(-c3cccnc3)n21
    -2.9, 3.2, -3.6, ., -1.7, -4.3, -20.0, ?
> O=C(CCN1C(=O)S/C(=C\c2ccccc2)C1=O)N1CCCCC1
    -1.0, -3.3, 10.9, -8.9, 3.5, -1.7, -2.1, i
> O=C(c1cccs1)N(C(=O)c1cccs1)c1ccc(Br)cn1
    21.9, -4.1, -184.7, -2.8, 1.7, -13.8, -12.3, i
> Cc1ccc(NC(=O)c2cc3ccccc3o2)cc1Cl
    3.0, 2.1, -163.8, -13.2, -4.4, 4.5, 17.1, i
> Cc1c(C(=O)NNC(=O)c2ccccc2O)oc2ccccc12
    1.4, -1.8, -15.3, -16.6, ., ., ., .
> Cc1cccc(NC(=S)NNC(=O)c2csc(C(C)C)c2)c1
    3.2, 5.2, -131.0, -31.7, -6.2, 1.7, 1.3, i
> Nc1cccc(-n2nncc2-c2ccccc2)c1
    1.6, 1.3, -124.9, -20.8, -6.3, -1.8, -2.7, .
> O=S(=O)(c1ccccc1)c1nc(-c2ccc(F)cc2)oc1N1CCOCC1
    -3.6, -5.0, 8.1, -18.6, -6.3, -17.7, -7.5, i
> COc1ccc(NC(=O)CN2CCN(c3c(C)cccc3C)CC2)cc1
    1.1, -6.3, 2.3, -1.7, -14.9, -2.9, 1.3, i
> Cc1ccc(C)c(N2N=C(C(=O)OCc3nnc(-c4ccccc4Br)o3)CCC2=O)c1
    4.1, 5.7, 6.6, -3.2, ., ., ., .
> Cc1ccc(NC(=O)CCc2c(C)nn(-c3ccc(N4CCOCC4)nn3)c2C)cc1C
    -5.8, -1.2, -7.1, -14.5, 0.6, -4.0, 14.5, i
> NC(=O)C1=NOC(CNc2ncc(C(F)(F)F)cc2Cl)C1 (stereo unspecified)
    -6.5, -0.7, ., 4.8, -11.9, -6.6, 0.9, i
> CCOc1ccc(NC(=O)Nc2cccc(C)n2)cc1
    0.0, -3.8, -41.6, -23.7, -0.5, -8.3, 14.0, i
> COc1ccc(Cn2nnnc2C(C(C)C)N2CCc3ccccc32)cc1 (stereo unspecified)
    -0.6, -2.7, 16.8, -17.5, -7.3, -4.3, 11.2, i
> O=C(/C=C/c1ccccc1)NC(=S)Nc1ccccc1
    0.0, -3.2, -6.9, -14.1, -3.8, 5.6, -12.1, i
> CCOc1ccc(S(=O)(=O)NCC(=O)OCc2nnc(-c3ccccc3)o2)cc1
    -0.5, 5.8, ., 6.1, ., ., -9.4, .
> O=C(Cc1ccccc1)NCC(=O)OCC(=O)c1cccs1
    -3.9, 5.7, ., 7.1, -3.4, -2.3, -13.0, i
> O=C(C1CCCCC1)N1CCN=C1SCc1cccnc1
    0.3, 2.5, 15.1, -9.4, 3.9, -10.3, -3.6, i
> CC1Cc2ccccc2N1Cc1cc(=O)c(OCC(=O)NCCc2ccccc2)co1 (stereo unspecified)
    -2.8, -2.8, -13.2, -11.3, ., ., -7.2, i
> COc1ccc(N(CN2C(=O)C3C4C=CC(C4)C3C2=O)C(=O)c2ccco2)cc1 (stereo unspecified)
    1.3, 5.6, -2.4, 7.1, 14.8, 14.0, ., .
> CCN(CC)CCNC(=O)C(Cl)=C1C(Cl)=C(Cl)C(Cl)=C1Cl
    12.2, 4.8, -36.9, -16.4, ., ., ., .
> COc1cc(C(=O)OCC(=O)NC(=O)c2cccn2C)ccc1OC(F)F
    3.3, 8.0, -9.8, -1.7, 12.5, -3.1, -6.2, i
> C/C(=N\O)C(=O)NCCN(C)C
    11.4, 8.4, ., ., -1.3, 4.3, -10.6, i
> COc1ccc(-n2c(-c3ccc(Br)cc3)nc(=S)c3c2CCCC3)cc1
    -2.0, -4.9, ., ., -5.0, 2.5, -7.7, i
> CCc1cc(C(=O)NNC(=S)Nc2cc(C)ccc2C)cs1
    6.6, 0.4, -118.6, -25.0, 3.5, 8.5, 4.5, i
> Cc1nc2ccccn2c1-c1csc(Nc2ccc(C(=O)O)cc2)n1
    -7.9, -15.7, -165.9, -21.2, 2.8, 2.8, 55.6, i
> Cn1cc(CNCCN2CCCCC2=O)c(-c2cccc(Cl)c2)n1
    0.1, 3.6, -5.5, -5.1, 2.7, 8.1, 9.3, i
> CCOc1ccc(Oc2c(/C=N/NC(N)=O)c(C)nn2-c2ccccc2)cc1
    -6.0, -6.1, 7.7, -6.8, -8.2, -4.1, -4.0, i
> O=C(Nc1ccc2c(c1)OCCO2)C1CC(O)CN1C(=O)Nc1ccccc1 (stereo unspecified)
    -1.0, 0.6, -9.7, ., 9.6, 7.5, -17.7, i
> Cc1cc(C(F)F)n2ncc(C(=O)N3CCC(C(N)=O)CC3)c2n1
    10.6, 5.9, -46.0, -15.8, 4.6, -2.1, -2.0, i

Screens: PubChem BioAssay, several laboratories
